NPYLR7 agonist – activates Aedes aegypti NPYLR7 receptor. HEK293T NPYLR7/Galpha15, GCaMP6s calcium fluorescence. activation, % at 10 µM. 0.15% of 270,000 active; in the data active = activation above about 40%;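 also: 0% = vehicle and 100% = reference agonist at the receptor; some compounds past the cut are filed as inactive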
NPYLR7 agonist max-min – recorded beside NPYLR7 agonist, whose call it bears; activation, %; measured here: Max-Min RFU normalised activation; some inactives read as strong as hits;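 span of the calcium signal over five minutes; 0% = vehicle and 100% = native peptide agonist; compound fluorescence can raise it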
An asterisk follows results filed as active; & = joins results of further samples.

A first look (3 entries):
item | mol | NPYLR7 agonist | NPYLR7 agonist max-min
1 | CCOC(=O)c1sc(NC(=O)Cn2cnc([N+](=O)[O-])n2)c(C(=O)OCC)c1C | -17 | -22
2 | Cc1nc(C)c(CC(=O)N(C)Cc2ccc(C)o2)c(=O)[nH]1 | 19 | 11
3 | NC1=NC2(CCc3ccccc3C2)n2c(nc3cc4c(cc32)OCCCO4)N1 (centres undefined) | 5 | 10

This part in full (from the top)
item | mol | NPYLR7 agonist | NPYLR7 agonist max-min
1 | CCOC(=O)c1sc(NC(=O)Cn2cnc([N+](=O)[O-])n2)c(C(=O)OCC)c1C | -17 | -22
2 | Cc1nc(C)c(CC(=O)N(C)Cc2ccc(C)o2)c(=O)[nH]1 | 19 | 11
3 | NC1=NC2(CCc3ccccc3C2)n2c(nc3cc4c(cc32)OCCCO4)N1 (centres undefined) | 5 | 10
4 | COc1ccc(OC)c(N2CCN(CC(=O)Nc3ccc4ncccc4c3)C2=O)c1 | -1 | -3
5 | Cc1noc(C)c1C(=O)N1CC(n2cccn2)Cc2ccccc21 (centres undefined) | 6 | 4
6 | CNC(=O)c1ccc(N2CCN(c3cccc(C)n3)CC2C)nn1 (centres undefined) | 7 | 6
7 | CC(C)N(CC(=O)N(Cc1cccn1Cc1ccc(F)cc1)C1CCCCC1)C(=O)c1cccs1 | 1 | 10
8 | COc1ccc(C2c3cccn3CCN2C(=S)NC(C)(C)C)cc1 (centres undefined) | 11 | 8

Compound profiles, from the list above. Screens in order: NPYLR7 agonist | NPYLR7 agonist max-min
CCOC(=O)c1sc(NC(=O)Cn2cnc([N+](=O)[O-])n2)c(C(=O)OCC)c1C is listed as -17 | -22
Cc1noc(C)c1C(=O)N1CC(n2cccn2)Cc2ccccc21 (centres undefined) is listed as 6 | 4
Cc1nc(C)c(CC(=O)N(C)Cc2ccc(C)o2)c(=O)[nH]1 is listed as 19 | 11
CC(C)N(CC(=O)N(Cc1cccn1Cc1ccc(F)cc1)C1CCCCC1)C(=O)c1cccs1 is listed as 1 | 10
COc1ccc(OC)c(N2CCN(CC(=O)Nc3ccc4ncccc4c3)C2=O)c1 is listed as -1 | -3

New compounds follow:
item | mol | NPYLR7 agonist | NPYLR7 agonist max-min
9 | COC(=O)/C=C(\CS(=O)(=O)c1ccccc1)C(=O)OC | 9 | 2
10 | Cc1ccc(C2=NOC(CN(Cc3ccccc3)C(=O)NC(C)C)C2)cc1 (centres undefined) | 17 | 8
11 | COC(=O)c1ccc(CN(Cc2ccc(C)s2)CC2CCCO2)o1 (centres undefined) | -1 | 9
12 | COCCOc1nc(-c2ccc(OC)cc2)n(-c2ccc(NS(=O)(=O)c3ccc(F)cc3)cc2)n1 | 2 | 14
13 | COc1ccccc1CCc1nnc(CCC(=O)NCC(C)Oc2cccnc2)o1 (centres undefined) | 7 | 12
14 | O=C(NCCc1ccccc1)C(C1CCCC1)N1CCN(C(=O)c2ccco2)CC1 (centres undefined) | -3 | -3
15 | NS(=O)(=O)c1ccc(N=Cc2ccc(OC(=O)c3ccccn3)cc2)cc1 | 4 | 3
16 | CCOCc1ccccc1NC(=O)N(C)c1c(C)noc1C | 0 | 3
17 | COc1ccc(CN(CCN(C)C)C(=O)CC(C)C)cc1OS(=O)(=O)c1ccc(NC(C)=O)cc1 | 2 | 15
18 | COc1cc(C2=NC(=Cc3cccc(C#N)c3)C(=O)O2)ccc1OC(F)F | 8 | 9
19 | CC1(C(=O)NS(=O)(=O)c2cccc(OC(F)F)c2)CCN1C(=O)Cc1cccs1 (centres undefined) | -1 | -6
20 | COc1ccc(CC(=O)Nc2cccc(C3SCCS3)c2)c(OC)c1 | -3 | -6
21 | Cc1nccn1CCCn1nc(C2CCCNC2)n(-c2ccccc2)c1=O (centres undefined) | 14 | 11
22 | COc1ccc(N(C)S(=O)(=O)c2ccc(OC)c(N3CCN(S(=O)(=O)c4cc(Cl)c(Cl)cc4Cl)CC3)c2)cc1 | 6 | 7
23 | Cc1c[nH]c(CN2CCC(N3CCCC(C(=O)NC4CC4)C3)CC2)c(C)c1=O (centres undefined) | 0 | 21
24 | FC(F)(F)Oc1cccc(-c2cccc(N3CCN(c4ccccn4)CC3)n2)c1 | -7 | -13
25 | CC(C)Cn1c2c(=O)[nH]c(=O)n(C)c2n2c(-c3ccc(F)cc3)nnc12 | 6 | 0
26 | CC1CN(C)CCN1C(=O)C1CCCN(c2ncccn2)C1 (centres undefined) | 7 | 5
27 | CCOC(=O)C1=C(C)N=c2s/c(=C\c3cc(Cl)cc(Cl)c3O)c(=O)n2C1c1ccc2c(c1)OCO2 (centres undefined) | 11 | 13
28 | O=C(CNC(=O)c1cccnc1)N=Nc1c(O)n(Cc2ccc3c(c2)OCO3)c2ccccc12 | -1 | -5
29 | COC(=O)c1ccc(COC(CN2CCN(S(=O)(=O)c3ccccc3C(F)(F)F)CC2)c2cccc(OC)c2)cc1 (centres undefined) | -10 | 0
30 | CC(CC(=O)Nc1ccc(Br)cc1)n1cncn1 (centres undefined) | 4 | 2
31 | COc1ccccc1-c1cnoc1-c1ccc(O)cc1O | 1 | -3
32 | O=C(Cc1csc(NC(=O)c2ccc[nH]c2=O)n1)Nc1ccc2c(c1)OCO2 | 7 | 10

A second format for 3 compounds above.
[30] CC(CC(=O)Nc1ccc(Br)cc1)n1cncn1 (centres undefined)
  NPYLR7 agonist: 4	NPYLR7 agonist max-min: 2

[31] COc1ccccc1-c1cnoc1-c1ccc(O)cc1O
  NPYLR7 agonist: 1	NPYLR7 agonist max-min: -3

[32] O=C(Cc1csc(NC(=O)c2ccc[nH]c2=O)n1)Nc1ccc2c(c1)OCO2
  NPYLR7 agonist: 7	NPYLR7 agonist max-min: 10

Remaining list, next part.
item | mol | NPYLR7 agonist | NPYLR7 agonist max-min
33 | CC(C)(CNC(=O)C1CC(=O)NC(=O)C1)c1ccc(F)cc1Cl | 1 | -4
34 | COc1cccc(C(=O)N2CCN(CC(OCc3ccc(C#N)cc3)c3cccc(OC)c3)CC2)c1 (centres undefined) | -1 | -1
35 | O=C1c2ccccc2C(=O)N1CN(C(=O)C(F)(F)F)c1ccc(Oc2ccccc2)cc1 | 6 | 5
36 | COC(=O)[C@H]1O[C@H](c2ccccc2)O[C@H]1c1ccccc1 | 3 | 7
37 | Cn1c(=O)c2c(nc(CN3CCN(c4ccccc4F)CC3)n2CCCO)n(C)c1=O | -4 | -2
38 | N#CC1C(=N)Oc2cc(N)ccc2C1c1ccc(Cl)c(Cl)c1 (centres undefined) | 12 | 3
39 | CCc1ccc(NC(=O)COc2ccc(Br)cn2)cc1 | 5 | 1
40 | CCC(O)CNC(=O)NC(=C(Cl)Cl)c1ccc(C)c(F)c1 (centres undefined) | 9 | 19
41 | CN1CC(=O)N2C[C@@H](NC(=O)c3ccc(OC(F)F)cc3)C[C@H]2C1=O | 2 | 0
42 | CC1CN=C(N2CCN(Cc3nnsc3Cl)CC2)S1 (centres undefined) | 3 | 1
43 | Cc1ccccc1C(=O)N1CCC2(CC1)OCC(C(=O)O)N2C(=O)c1cccc(F)c1 (centres undefined) | 9 | 14
44 | O=C1NCCN2CCN(Cc3ccc(Cl)c(Cl)c3)CC12 (centres undefined) | -4 | -5
45 | Nc1cc(-c2ccc(Cl)cc2)nn1-c1ccc(C(=O)Nc2cccc(C(F)(F)F)c2)cc1 | -6 | -8
46 | C=CCn1nc(C(=O)O)c2c1CCC(NCc1ccc3c(c1)OCCCO3)C2 (centres undefined) | 7 | -1
47 | Cc1nn(-c2ccccc2)c2oc(=O)c3c(c12)CCCC3 | 9 | 6
48 | CCCN1CC(n2cc3ncccc3c2O)CC1=O (centres undefined) | 2 | -1
49 | CN1CCC2(CC1)CN(C(=O)c1ccc(-c3nnn(C)n3)cc1)CCN2C | -4 | -6
50 | COc1ccccc1-n1cc(C(=O)N2CCc3c(nc[nH]c3=O)C2)cn1 | 21 | 11
51 | N#Cc1cccc(OC2CC3CCC(C2)N3C(=O)c2ccc(CSc3ccccc3Cl)cc2)c1 (centres undefined) | 11 | -5
52 | O=C(c1n[nH]c(=O)c2ccccc12)N1CCC(n2c(=O)[nH]c3ccccc32)CC1 | 7 | 4
53 | Cn1cccc1C(=S)N=P(C1CCCCC1)(N1CCOCC1)N1CCOCC1 | -5 | -10
54 | O=C(NCC1CCCN(C(=O)CCN2CCCCC2=O)C1)c1ccc(F)cc1 (centres undefined) | -6 | -7
55 | O=S(=O)(c1ccc(F)cc1)N1CCN(c2nc(-c3ccco3)nc3cc(Cl)ccc23)CC1 | 18 | 28
56 | Cc1oc(-n2cccc2)c(C#N)c1C(=O)NC(C)c1ccccc1Cl (centres undefined) | 1 | 13
57 | COc1cccc(-c2cn[nH]c2C2CCN(C(=O)c3sccc3N)CC2)c1 | 2 | 1
58 | CC(=O)N1CCC(C(=O)N2CCN(C(c3ccc(Cl)cc3)c3ccc(Cl)cc3)CC2)CC1 | -2 | 4
59 | COc1ccccc1C1c2cccn2CCCN1Cc1cccc(C(F)(F)F)c1 (centres undefined) | 11 | 16
60 | CCOC(=O)C1(Cc2ccccc2C(F)(F)F)CCN(Cc2ccc(COC)o2)CC1 | 2 | -1
61 | CN(C)c1oc(COc2ccccc2F)nc1C#N | -3 | -4
62 | O=C(NC(C(=O)N1CCCCC1)C1CCN(C(=O)C2CCCC2)CC1)c1ccccc1Cl (centres undefined) | -15 | -11
63 | C=CCn1nc(C(=O)N2CCSCC2)c2c1CCC(NCCCSC)C2 (centres undefined) | 19 | 11
64 | CC(C)CC(N)c1csc(Nc2ccccn2)n1 (centres undefined) | 3 | 4
65 | O=c1n(CC2COCCO2)nc(CC2CCNCC2)n1-c1ccccc1 (centres undefined) | 17&-4 | 11&-7
66 | CCC(CC)Nc1ccc(-c2nnc(Br)s2)cc1 | 1 | 0
67 | Fc1ccc(Cc2nc(CSc3cccc(C(F)(F)F)c3)cs2)c(Cl)c1 | 24 | 19
68 | CCC(C)Oc1ccccc1/C=C/C(=O)NC1CCOCC1 (centres undefined) | 5 | 4
69 | CCN(CC)c1onc(-c2ccccc2)c1CN(CC1CC1)CC(O)c1ccccc1 (centres undefined) | -2 | 14
70 | CCOC(=O)c1nn(-c2ccc(C)cc2)c(=O)c2c(NC(=O)Cc3ccccc3)scc12 | -1 | -2
71 | CCCc1nc(N2CCN(S(=O)(=O)c3cccc4cccnc34)CC2)c2c3c(sc2n1)CN(CC)CC3 | 1 | 2
72 | COc1ccc(-c2cnc3ncnn3c2N2CCCN(C(=O)[C@H](C)OC(C)=O)CC2)cc1OC | 2 | 0
73 | CC(C)(C)c1ccc(COc2coc(CN3CCN(C(=O)/C=C/c4ccc(OC(F)(F)F)cc4)CC3)cc2=O)cc1 | 31 | 17
74 | O=C(Cc1n[nH]c(=O)c2ccccc12)N1CCCc2ccccc21 | 0 | 0
75 | COc1ccc(OCCCCOc2ccccc2F)cc1 | 21 | 7
76 | CCOc1ccc(C(=O)Nc2c(C)nc3scc(C)n3c2=O)cc1OCC | 9 | 6
77 | COc1cccc(CNC(=O)CSc2nccn3nc(-c4cccc5ccccc45)cc23)c1 | 3 | 2
78 | CCCc1cc(C(=O)N2CCC3(CCCN(Cc4cccc(OC)c4OC)C3)C2)n(C)n1 (centres undefined) | 16 | 8
79 | Cc1ccc2ncccc2c1CNc1nc(C2CCCC2)nc2c1CNC2 | 30 | 15
80 | COc1cccc(CN(CC2CC(c3ccc(Cl)cc3)=NO2)C(=O)C(C)C)c1 (centres undefined) | 11 | 26
81 | CC1Oc2ccc(-c3cccc(F)c3)cc2N(c2ccc3c(c2)CCO3)C1=O (centres undefined) | 3 | 1
82 | COc1ccc(CCN2CC(C(=O)N(C)Cc3c(C)n[nH]c3C)CCC2=O)cc1 (centres undefined) | 19 | 5
83 | O=c1cc(CCn2cccn2)nc(-c2ccc(CN3CCC[C@@H]3CO)cc2)[nH]1 | -3 | 3
84 | COc1ccc(CCN(C)C2CCCN(Cc3cccc(-n4cccn4)c3)C2)cc1OC (centres undefined) | 7 | -2
85 | O=[N+]([O-])c1cc(S(=O)(=O)Nc2ccc(Br)cc2)ccc1Cl | 6 | 12
86 | COc1ccc(CN2C[C@@H]3C[C@@H](C(N)=O)N(C(=O)CC(C)(C)C)c4cccc(c43)C2=O)cc1 | 5 | 13
87 | C=CCn1c(SCC(N)=O)nc2sc3c(c2c1=O)CCCC3 | 7&5 | 7&2
88 | Cc1ccc(C(CC(=O)O)NC(=O)CN2C(=O)c3ccccc3C2=O)cc1 (centres undefined) | 13 | 13

(continued)
item | mol | NPYLR7 agonist | NPYLR7 agonist max-min
89 | Fc1cc(F)c2nc(N3CCN(c4nc5c(F)cc(F)cc5s4)CC3)sc2c1 | 12 | 6
90 | N#Cc1cccc(CN2CCN3C(C(=O)NCCc4ccccc4)=COC3=NC2=O)c1 | -1 | -3
91 | N#C/C(=C\n1cccc1-c1ccc([N+](=O)[O-])cc1)c1nn(-c2ccccc2)c(N)c1C#N | -5 | -7
92 | CC(COCC(F)(F)F)NC(=O)NCc1ccc(N(C)C)c(F)c1 (centres undefined) | -6 | -7
93 | CCCOc1cc(S(=O)(=O)NCc2ccc3c(c2)OCO3)ccc1Br | -4 | -3
94 | O=C(c1cc2ccccc2[nH]1)N(CC(F)F)C1CC1 | -21 | -23
95 | CCCCCN=C(NC(=O)c1ccco1)OCCC | 22 | 18
96 | COCCN(CC(=O)N(CCc1ccc(OC)c(OC)c1)Cc1cccs1)C(=O)Nc1ccc(Cl)cc1Cl | 21 | 19
97 | Cc1ccc(-n2ncc3c(=O)n(NC(=O)c4cccc5ccccc45)cnc32)cc1 | 4 | 1
98 | CSc1n[nH]c(N)c1S(=O)(=O)c1ccccc1 | 1 | -2
99 | Cc1sc(CNC(=O)C2CCOCC2)nc1-c1ccc(Cl)cc1 | 1 | 0
100 | C(=N/NC1=NC2(CCCCC2)Cc2ccccc21)/c1ccncc1 | -7 | -3

Bioassay records: PubChem BioAssay, Fisher Drug Discovery Resource Center

A portion of the library; rates above refer to the full screens.
